Lassa entry inh: inhibitors of Lassa virus binding or cell entry. Lassa virus pseudotype entry inhibition, cell reporter; control for the full effect not named in the record. Potency, µM (series often up to 37.9 µM), for inactives: top-dose activity change, negative = inhibition, usual class: inhibitors. 1.2% of 300,000 active. AID 540256; active means well fitted inhibition curve with a large enough effect; inconclusive means small, poorly fitted or top-dose-only effect, or effect the other way; inactive means flat fitted curve, though single readings scatter; tested in HEK293 cells; also: % is scaled to controls: 0 for no effect and ±100 for the full control effect; nearly all actives have a fitted effect of over 50% in size; luciferase read-out
Cruzain inh noDet: inhibitors of Trypanosoma cruzi cruzain without detergent. Potency, µM, for the others: max response, negative = inhibition, actives largely listed as inhibitors. 2.3% of 200,000 active. purified cruzain, Z-FR-AMC fluorescence, no detergent;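 also: plate controls were enzyme without inhibitor for no effect and buffer without enzyme for full effect; nearly all actives have a fitted effect of over 40% in size; top concentration of the series not given in the record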
Target sequence (P25779 123-467 limits assumed): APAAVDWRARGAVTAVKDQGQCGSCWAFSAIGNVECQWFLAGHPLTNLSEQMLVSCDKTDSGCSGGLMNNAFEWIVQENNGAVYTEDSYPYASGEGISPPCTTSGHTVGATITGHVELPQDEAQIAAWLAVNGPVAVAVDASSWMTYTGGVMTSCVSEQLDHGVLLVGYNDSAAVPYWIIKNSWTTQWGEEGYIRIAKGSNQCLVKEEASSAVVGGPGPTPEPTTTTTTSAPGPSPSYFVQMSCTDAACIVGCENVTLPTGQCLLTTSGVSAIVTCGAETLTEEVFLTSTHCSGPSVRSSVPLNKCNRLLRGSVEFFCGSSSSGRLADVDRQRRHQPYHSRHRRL
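Purified cruzain at 1.5 nM, pre-incubated 15 min with compound at room temperature in 100 mM sodium acetate pH 5.5, 5 mM DTT, 0.00005% Triton X-100. Reaction started with 2 uM Z-FR-AMC; AMC fluorescence increase over 60 s gives rate.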
NS1 function inh: influenza NS1 inhibition. S. cerevisiae slowed by influenza A NS1, growth recovery by OD600. Potency, µM (titrated, usually from 46.1 µM), inactives show at the highest dose activity, positive = more growth. 0.4% of 270,000 active; active means well fitted rising curve with a large enough effect; inconclusive means small, poorly fitted or top-dose-only effect; inactive means no such curve, though single readings can be large or run the other way; also: nearly all actives have a fitted effect of over 50% in size
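A cell-based growth assay was used: compounds that relieve NS1-induced slow growth of budding yeast raise OD600. Assay medium was yeast nitrogen base with ammonium sulphate and -URA supplement, pH 6.0, with 2% galactose.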
Marburg entry inh: inhibitors of Marburg virus binding or cell entry. Marburg virus pseudotyped entry inhibition, cell reporter; control for the full effect not named in the record; about a third of the inactives were read at about 46 µM. 1.8% of 300,000 active. Potency, µM (top dose mostly 37.8 µM), for the others: at the highest dose activity change, negative = inhibition, hits mostly inhibitors; active = well fitted inhibition curve with a large enough effect; inconclusive = small, poorly fitted or top-dose-only effect, or effect the other way; inactive = flat fitted curve, though single readings scatter; tested in HEK293 cells; about a fifth of its hits are not listed in these tables; also: % is scaled to controls: 0 for no effect and ±100 for the full control effect; luciferase read-out
RE007 growth inh: less growth of the S. pombe RE007 Vpr strain. S. pombe RE007 Vpr strain, BacTiter-Glo ATP luminescence, 24 h; control for the full effect not named in the record. Potency, µM (top dose mostly 92.2 µM), inactives show at the top dose activity change, negative = less growth. 0.21% of 360,000 active. AID 651644; active = well fitted falling curve with a large enough effect; inconclusive = small, poorly fitted or top-dose-only effect; inactive = no such curve, though single readings can be large or run the other way;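 also: % is scaled to controls: 0 for no effect and ±100 for the full control effect; nearly all actives have a fitted effect of over 50% in size; the assay follows cell death caused by Vpr and the record does not say whether a fall means rescue or toxicity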
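Fission yeast RE007 carrying one integrated HIV-1 vpr copy, seeded at OD 0.01 in PMG+AL medium with 23 nL pinned compound. Grown 24 h at 30 degrees; viability read by BacTiter-Glo luminescence after 5 min.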
SARS PLpro yeast: blocks SARS-CoV papain-like protease in a yeast assay; 0.19% of 330,000 active; Potency, µM (doses to about 32.9 µM), inactives show at the top dose activity, positive = growth rescue; S. cerevisiae expressing SARS-CoV PLpro, growth rescue; control for the full effect not named in the record; active means well fitted rising curve with a large enough effect; inconclusive means small, poorly fitted or top-dose-only effect; inactive means no such curve, though single readings can be large or run the other way; also: 0% is about no effect; nearly all actives have a fitted effect of over 55% in size; growth read by luminescence after 48 h
StopGo reporter: lowers the luciferase signal of an FMDV 2A StopGo reporter; Potency, µM (series often up to 57.9 µM), for inactives: at the top dose signal change, negative = less light; human cells with a luciferase reporter of 2A StopGo recoding; control for the full effect not named in the record; 1.2% of 410,000 active; active = well fitted falling curve with a large enough effect; inconclusive = small, poorly fitted or top-dose-only effect; inactive = no such curve, though single readings can be large or run the other way; tested in HEK293T cells; also: % is scaled to controls: 0 for no effect and ±100 for the full control effect; nearly all actives have a fitted effect of over 45% in size; luciferase light after 4 h
Cruzain inh Det: cruzain (T. cruzi) inhibition with detergent; purified cruzain, Z-FR-AMC fluorescence, 0.01% Triton; 0.43% of 200,000 active; Potency, µM, inactives show max response, negative = inhibition, usual class: inhibitors; AID 1478; P25779;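 also: plate controls were neutral wells for no effect and buffer without enzyme for full effect; nearly all actives have a fitted effect of over 40% in size; top concentration of the series not given in the record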
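Detergent-containing arm of a paired screen for aggregation-based inhibition: 0.01% Triton X-100 present. Cruzain at 1.5 nM cleaved 2 uM Z-FR-AMC at pH 5.5 with 5 mM DTT; AMC fluorescence gain over 60 s measured activity.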
Active calls of the source: *; ? = inconclusive; nt = no result given; & = joins results of further samples; [ ] = remark or other dose. Unless noted, calls follow the shape of the dose curve; as a rule, active = well fitted curve in the direction sought with a large enough effect; inconclusive = small, poorly fitted or top-dose-only effect, or another doubt; inactive = no such curve, though single readings can be large; an effect the other way counts as inactive or inconclusive. Potency is read from the fitted curve at half-maximal effect.

SMILES | Lassa entry inh | Cruzain inh noDet | NS1 function inh | Marburg entry inh | RE007 growth inh | SARS PLpro yeast | StopGo reporter | Cruzain inh Det
CCCNc1nc2c(c(=O)[nH]c(=O)n2C)n1Cc1ccc(F)cc1 | nt | -5.3% | -34.8% | nt | -4.0% | -0.4% | -7.0% | 4.7%
CCOC(=O)c1cc2c(nc1C)-c1cc(Cl)cc(Cl)c1OC2O (stereo not drawn) | nt | nt | 6.0% | nt | 2.4% | -5.0% | -12.4% | nt
Cc1cc(N=Nc2ccc3ccccc3c2)ccc1O | ? | nt | -150.0% | -26.9% | ? | -28.3% | -55.0% | nt
CC1=C(C(N)=O)C(c2ccc(C(C)C)cc2)n2nc(SCc3ccccc3)nc2N1 (stereo not drawn) | ? | ? | nt | 26.2%[46.1 µM] | nt | nt | -6.2% | 1.2%
COC(=O)C1=NN(c2ccccc2)C2(S1)S/C(=C\c1ccccc1)C(=O)N2c1ccccc1 (stereo not drawn) | -11.1% | 10µM* | 1.7% | -7.7% | -13.9% | -9.4% | 0.0% | 2.0%
O=C(O)CSC(=S)N1CC2CC(C1)c1cccc(=O)n1C2 (stereo not drawn) | nt | nt | -0.2% | nt | -2.4% | -0.4% | -1.8% | nt
Cc1ccc2c(c1)N=C(c1ccc(F)cc1)CO2 | 3.6% | -0.5% | -30.5% | ? | -17.6% | -5.8% | 29.9% | -6.7%
COc1cccc2sc(N3CCN(C(=O)CCS(=O)(=O)c4ccc(F)cc4)CC3)nc12 | ? | 20.0% | nt | nt | nt | nt | 20µM* | -1.9%
CCCCCCCCC/C(=N\O)c1ccccn1 | ? | 4.5% | -175.4% | ? | ? | -23.7% | 73.7%[activator] | -9.1%
O=C(NCCc1ccccc1F)C(=O)Nc1nccs1 | ? | -29.7% | -2.4% | 2.5% | -12.6% | 0.4% | 46.0%[activator] | 2.8%
Cc1ccc(/C=C/C(=O)NCc2ccco2)o1 | -14.3% | 2.4% | 10.3% | 12.6% | nt | -7.5% | nt | -13.9%
Cc1ccc(NC(=O)Nc2cccc(C)n2)cc1 | -1.2%[46.1 µM] | -6.4% | -4.9% | nt | -7.2% | -4.3% | 49.9%&36.3%[activator] | -2.2%
COc1ccccc1Oc1ccc2c(c1)C(=O)N(CC(=O)O)C2=O | 0.2% | nt | 1.0% | 28.2% | 0.0% | -0.7% | -13.6% | nt
O=C1CC(c2cccc([N+](=O)[O-])c2)c2ccc3ccccc3c2N1 (stereo not drawn) | 3.1% | ? | -3.0% | -26.9% | -5.5% | -18.4% | nt | -5.3%
COc1ccc(S(=O)(=O)N2CCC(N3CCN(c4ccccc4)CC3)CC2)cc1 | nt | 2.4% | -7.7% | -1.2% | nt | -6.9% | nt | 0.6%
O=C(CSc1nccc(-c2cccs2)n1)Nc1ccc(F)c(Cl)c1 | nt | nt | -10.1% | nt | 23.0% | -3.6% | -11.6% | nt
Cc1ccc(C(=O)COC(=O)CCN2C(=O)C3C4CC(C(Br)C4Br)C3C2=O)cc1 (stereo not drawn) | -8.7% | 8.0% | 3.7% | 6.2% | 24.5% | 12.6µM* | -15.5% | -3.7%
O=C(CSc1n[nH]c(=O)[nH]c1=O)Nc1ccc(C(=O)O)cc1 | nt | nt | 7.5% | nt | 5.3% | 0.4% | -8.6% | nt
CC(Sc1ccc2ccccc2n1)C(=O)O (stereo not drawn) | 4.2% | -5.6%&0.5% | -81.8%&-46.4% | ? | 7.4% | -7.5%&-0.9% | 20.8% | 0.6%&-1.8%
Cc1ccc(NC(=O)c2cc(-c3ccco3)on2)cc1C | ? | -9.0% | -53.5% | 12.2% | -0.1% | 0.8% | 49.9%[activator] | 6.3%
CC1Cc2cc(/C(O)=C3/C(=O)C(=O)N(CCN4CCOCC4)C3c3cccc(O)c3)ccc2O1 (stereo not drawn) | 7.3% | -16.9% | -28.6% | 11.8%&11.8% | 13.3% | -4.6% | 14.6% | -6.0%
CC1=Nc2ccccc2/C1=C/c1sc(=O)n(CC(=O)N2CCCC2)c1O | -9.5% | 1.8% | -1.7% | 2.7% | -7.3% | 0.8% | ? | -3.3%
O=C(Nc1cccc(Cl)c1Cl)c1ccncc1 | 6.3% | 0.5% | -8.1% | -11.1% | -27.1% | -1.6% | -19.5% | 1.2%
O=S(=O)(c1ccc2[nH]ccc2c1)N1CCCCCC1 | nt | nt | -2.0% | nt | 3.3% | -2.9% | 59.1%[activator] | nt
COc1ccc(/C(O)=C2\C(=O)C(=O)N(Cc3ccco3)C2c2cc(OC)ccc2OC)cc1 (stereo not drawn) | 11.8% | -5.8% | 5.4% | -0.2% | -13.6% | 1.0% | nt | 2.1%
COc1ccc(N2C(=O)c3ccccc3C2=O)cc1 | nt | nt | -4.8% | 11.0%&11.0%[46.1 µM] | 0.0% | -0.6% | 0.0% | nt
NC(=S)NN=C1CCCCC12CCCC2 | -19.1%[46.1 µM] | nt | nt | -25.4%[46.1 µM] | ? | nt | 6.4% | nt
CCOc1ccc(-c2nnc(SCc3nnc(-c4ccccc4)o3)n2-c2ccccc2F)cc1 | ? | -2.4% | -34.9% | ? | 7.7% | -3.9% | ? | -9.2%
CCC(=O)c1c[nH]c(C(=O)N2CCOCC2)c1 | 2.7%[46.1 µM] | nt | 0.0% | 7.1%[46.1 µM] | 16.0% | -4.0% | -10.7% | nt
NC(=O)CC(NC(=O)Cc1cccc2ccccc12)c1ccc(NCC2CC2)c([N+](=O)[O-])c1 (stereo not drawn) | nt | nt | -7.1% | nt | -5.4% | -3.4% | 2.5% | nt
O=c1c(Cc2ccccc2)c(O)nc2n1CCCS2 | 11.5% | 0.5% | -0.2% | 4.2% | -8.1% | 2.7% | -17.3% | -0.4%
O=C(c1ccc(Cl)cc1)c1cn[nH]c1-c1ccccc1O | -1.8% | -5.7% | -4.6% | -26.3% | -19.4%[3.69 µM] | -3.6% | -0.6% | -1.0%
Fc1ccc(Nc2c3c(nc4ccccc24)CCC3)cc1 | ? | 0.2% | -1.0% | ? | -3.0% | 0.8% | -25.8%&0.0% | -4.5%
O=C(C1=C[C@@H](c2coc3ccccc3c2=O)C[C@@H](OCc2ccc(CO)cc2)O1)N1CCCCCCC1 | nt | nt | 3.0% | nt | -12.4% | -0.6% | 18.3% | nt
Cc1cc(-c2ccc(C)c(S(=O)(=O)NCCCN(Cc3ccccc3)C(C)C)c2)on1 | nt | nt | -15.0% | nt | 0.2% | -0.8% | 51.5%[activator] | nt
COc1ccc(Nc2ncnc3onc(C)c23)cc1Cl | 9.4%[46.1 µM] | -19.6% | nt | nt | nt | nt | -6.1% | -1.9%
O=C(/C=C/c1ccc2c(c1)OCO2)Nc1ccc(Cl)cn1 | ? | nt | nt | ? | 23.7% | -6.7% | 26.6% | nt
COc1ccc(NC(=O)c2cc([N+](=O)[O-])ccc2NC(=O)CNCc2ccccn2)c(OC)c1 | ? | nt | 15.2% | 7.1%[46.1 µM] | 3.4% | -9.1% | -13.3% | nt
CCC(C)C(=O)N1CCc2cc(-c3csc(N)n3)ccc21 (stereo not drawn) | -2.8% | -12.1% | -109.2% | ? | -9.7% | -26.1% | 13.4% | -7.4%
COc1ccc(C)cc1NC(=O)CCN1CCN(c2ccccc2)CC1 | -7.6%[46.1 µM] | nt | 1.3% | -25.6%[46.1 µM] | -6.0% | 0.3% | -16.7% | nt
COc1ccc(NC(C)=O)cc1NC(=O)CN1CCN(S(=O)(=O)c2ccc(C(C)C)cc2)CC1 | -17.1% | -7.7% | 5.5% | 5.4%&5.4% | 2.3% | 6.3% | 0.0% | 2.1%
Cn1cc(CCNC(=O)C2CCC(=O)N(CCc3ccc(Cl)cc3)C2)cn1 (stereo not drawn) | 8.0% | nt | 2.5% | 30.1% | 6.6% | 1.4% | -5.0% | nt
CC(=O)c1ccc(OCC(=O)Nc2ccccc2C(=O)NC2CC2)cc1 | -8.8% | nt | 6.2% | -29.6% | -6.2% | 6.1% | -9.4% | nt
O=C(CN1C(=O)c2ccccc2C1=O)Nc1nnc(C2CCCO2)s1 (stereo not drawn) | 1.4% | -0.6% | 2.3% | 27.5% | 5.4% | 5.8% | 22.4% | 3.4%
CCOC(=O)c1c(C)oc2nc(C)nc(N(CC(C)C)CC(C)C)c12 | 11.1%[46.1 µM] | -3.3% | nt | nt | nt | nt | ? | -4.0%
O=C(Nc1cccc(C(F)(F)F)c1)C(=O)N1CCCCC1 | -23.4%[46.1 µM] | nt | -0.8% | 17.4%[46.1 µM] | 3.6% | -0.8% | 23.5% | nt
Cc1nn(C)c2c1c(C(F)(F)F)cc(=O)n2CC(=O)N1CCCCC1 | -4.3%[46.1 µM] | 23.3% | nt | nt | nt | nt | -24.6% | -4.2%
CN1CCN(c2nnc(-c3ccc(Cl)cc3)c3ccccc23)CC1 | nt | nt | 1.8% | nt | 3.2% | -1.3% | -26.3% | nt
CCOc1ccc(NC(=O)N(CC(C)C)CC(C)C)cc1 | -1.1% | 10.2% | -52.7% | ? | -10.3% | -3.9% | -3.7% | 1.4%
CN(C)S(=O)(=O)c1cccc(NC(=O)COC(=O)COc2ccccc2[N+](=O)[O-])c1 | ? | nt | nt | 1.8%[46.1 µM] | -16.8% | 2.6% | -2.5% | nt
O=C(N/N=C/c1cccn1-c1ccc(O)cc1)c1cccc2ccccc12 | nt | nt | -7.0% | nt | -1.1% | 26.5% | -19.6% | nt
O=C(CN1CCCCCC1)Nc1cc(C(F)(F)F)ccc1Cl | -6.0% | nt | nt | -5.5% | -2.3% | -1.9% | -17.8% | nt
CCCn1nc([N+](=O)[O-])c(C(C#N)c2nc3ccccc3s2)c(Cl)c1=O (stereo not drawn) | -15.7% | -27.6% | -60.8% | ? | 10.4% | -57.4% | ? | ?
COc1cc(S(=O)(=O)n2cnc(C)c2)ccc1Br | -23.4%[46.1 µM] | nt | -1.8% | ? | -7.2% | 0.6% | 17.2% | nt
O=C(CCN1C(=O)/C(=C/c2ccc(F)cc2)SC1=S)Nc1cc([N+](=O)[O-])ccc1O | nt | nt | 3.8% | nt | -10.9% | 0.1% | -12.3% | nt

Screens deposited in PubChem by National Center for Advancing Translational Sciences (NCATS).
